H5N1 antiviral – antiviral screen in MDCK cells, H5N1 avian flu. cytopathic effect, luminescence, 72 h; active compounds read high; no value below 0 was filed and about half of the inactive calls have no number; reference of the scale not given here. 96,000 tested, 0.07% active. AID 740. inhibition, % at 50 µM; in the data active means inhibition above about 25%
An asterisk follows results filed as active; i = inactive. These rows are one share of the data (hit frequency here may not be typical).

cpd	Molecule	H5N1 antiviral
1	CC1CCCC(C)N1S(=O)(=O)c1ccc(NC(=O)c2ccccc2C(=O)N2CCOCC2)cc1 (stereo unspecified)	0.1
2	CCNc1ccc(C(=O)OCC)cc1NC(=O)c1cccc(S(=O)(=O)N2CCOCC2)c1	0.4
3	O=C1CN(c2nc3ccccc3n3cnnc23)CC(=O)N1CCc1ccccc1	3.5
4	Cc1ccc(C(=O)NCc2ccco2)cc1S(=O)(=O)Nc1cccc(Cl)c1	i
5	CCOC(=O)N1CCN(S(=O)(=O)c2ccc(OC)c(Cl)c2)CC1	1.8
6	Cn1c(=O)c2c(nc(NCc3ccc4c(c3)OCO4)n2Cc2ccccc2F)n(C)c1=O	i
7	CC(=O)N1CCN(c2ccc(NC(=O)c3ccc(N4CCCC4)c([N+](=O)[O-])c3)cc2Cl)CC1	i
8	COc1cccc(NC(=O)c2ccc3c(c2)N(CC(=O)N2CCCCC2)C(=O)C(C)(C)O3)c1	i
9	COc1ccc(CN2CCOCC2)cc1OC	i
10	COc1cc(CNCc2ccccn2)ccc1OCc1cccc(Cl)c1	i
11	Cc1cc(OCC(=O)NCCN2CCOCC2)cc(C)c1Br	i
12	CCCCn1c(SCc2c(C)noc2C)nc2cc(S(N)(=O)=O)ccc21	i

cpd	Molecule	H5N1 antiviral
13	C/C(=N/Nc1nc(-c2ccc(Cl)cc2)cs1)c1cccs1	i
14	COc1ccccc1N(C(C)=O)C1SC(=O)N(c2ccccc2)C1=O (stereo unspecified)	i
15	CCC(C)C(NC(=O)OC(C)(C)C)C(=O)NC(Cc1ccccc1)C(=O)OC (stereo unspecified)	i
16	CC(C)CC(=O)N1CCN(C(=O)CCC2CCCC2)CC1	0.1
17	CN(C)CCNc1nc2c(c(=O)[nH]c(=O)n2C)n1CCCc1ccccc1	3.9
18	C=CCn1c(Cc2cccs2)nnc1SCC(=O)c1cccc(Br)c1	3.4
19	NS(=O)(=O)c1ccc(CCNC(=O)CSc2ccccc2)cc1	i
20	CC(C)(c1ccccc1)c1ccc(OCCCNCCO)cc1	i
21	CN1C(=S)SC(N(O)C(=O)NC2CCCCC2)C1(C)C (stereo unspecified)	1.0
22	CC(C)NC(=O)c1onc(CSc2cccc3ccccc23)c1C(=O)O	i
23	CN(Cc1nc2ccccc2n1C)S(=O)(=O)c1ccc(F)cc1	i
24	COc1ccc(Nc2nc(C)cc(=O)[nH]2)c(OC)c1	i

cpd	Molecule	H5N1 antiviral
25	COc1cc(S(=O)(=O)NC2CCCCC2C)ccc1Cl (stereo unspecified)	i
26	COc1ccc2c(-c3ccccc3)cc3nnnn3c2c1	3.3
27	O=C(C1Cc2ccccc2CN1S(=O)(=O)c1ccc(F)cc1)N1CCCCCC1 (stereo unspecified)	3.8
28	O=C(N1CCN(CCO)CC1)N1c2ccccc2C=Cc2ccccc21	i
29	Oc1c(C=Nc2cccc3nsnc23)ccc2ccccc12	0.4
30	O=C(N/C=N/OCc1ccc(Cl)cc1Cl)NOCc1c(Cl)cccc1Cl	0.5
31	CCOC(=O)CSC1=C(C#N)C(c2ccccc2OCC)C(C#N)C(=O)N1 (stereo unspecified)	i
32	Cc1nn(C)cc1/C=C1\CCC/C(=C\c2cn(C)nc2C)C1=O	1.6
33	CCOC(=O)CC(NC(=O)c1ccc(C)cc1)c1ccc(C)cc1 (stereo unspecified)	0.2
34	CC1=C(C(N)=O)C(c2ccccc2)n2nc(-c3cccc(C)c3)nc2N1 (stereo unspecified)	i
35	Cc1ccc(-n2nc(C(=O)NCc3ccco3)c3c4ccccc4n(C)c3c2=O)cc1	0.8
36	CSc1nnc(Cn2c(=O)sc3ccccc32)n1-c1ccccc1	1.3

Exported with each value named: entries from further up
32	Cc1nn(C)cc1/C=C1\CCC/C(=C\c2cn(C)nc2C)C1=O
  H5N1 antiviral: 1.6
6	Cn1c(=O)c2c(nc(NCc3ccc4c(c3)OCO4)n2Cc2ccccc2F)n(C)c1=O
  H5N1 antiviral: i
26	COc1ccc2c(-c3ccccc3)cc3nnnn3c2c1
  H5N1 antiviral: 3.3
33	CCOC(=O)CC(NC(=O)c1ccc(C)cc1)c1ccc(C)cc1 (stereo unspecified)
  H5N1 antiviral: 0.2

Other structures.
cpd	Molecule	H5N1 antiviral
37	O=C(N/N=C/c1ccc(O)c(O)c1)c1ccc(CSc2cccc3cccnc23)cc1	8.9
38	COc1ccc(S(=O)(=O)N(C)CC(=O)NCCC2=CCCCC2)cc1C	i
39	CC(=O)Nc1ccc(S(=O)(=O)N(C)CC(=O)Nc2ccccc2N2CCOCC2)cc1	i
40	CCCCN(CC(=O)Nc1c(C)cccc1CC)C(=O)SCC	1.3
41	COc1cc2c(cc1OC)-c1cc(N3CCCc4ccccc43)nc(=O)n1CC2	0.4
42	O=C1NC(c2ccccc2)=C(c2nc3ccccc3s2)C(c2ccccc2)N1 (stereo unspecified)	0.9
43	CC(C)c1nc2n[nH]c(N)c2c2c1CSC(C)(C)C2	2.6
44	CC(C)[C@H](NC(=O)NCCc1ccc(F)cc1)C(=O)O	0.6
45	COC(=O)c1ccc(Oc2c(C)oc3cc(OCc4cnn(-c5ccccc5)c4)ccc3c2=O)cc1	0.4
46	CCOc1ccc(NC(=O)C2CC(=O)N(C(C)C)C2)cc1 (stereo unspecified)	i
47	CCOc1ccccc1C1CC(=O)NC(SCC)=C1C#N (stereo unspecified)	i
48	COc1ccc(S(=O)(=O)N(CCN2CCOCC2)Cc2cc(OC)ccc2OC)cc1	i

Part of the list above, set out differently:
45) COC(=O)c1ccc(Oc2c(C)oc3cc(OCc4cnn(-c5ccccc5)c4)ccc3c2=O)cc1
  H5N1 antiviral: 0.4

41) COc1cc2c(cc1OC)-c1cc(N3CCCc4ccccc43)nc(=O)n1CC2
  H5N1 antiviral: 0.4

39) CC(=O)Nc1ccc(S(=O)(=O)N(C)CC(=O)Nc2ccccc2N2CCOCC2)cc1
  H5N1 antiviral: i

37) O=C(N/N=C/c1ccc(O)c(O)c1)c1ccc(CSc2cccc3cccnc23)cc1
  H5N1 antiviral: 8.9

Carrying on.
cpd	Molecule	H5N1 antiviral
49	O=C(Nc1c(F)cccc1F)c1cnc(N2CCN(c3ccccn3)CC2)c2ccccc12	i
50	CCN=C1SC(C(=O)Nc2cccc(C)c2)CC(=O)N1CC (stereo unspecified)	i
51	COc1cc(/C=N\NC(=O)CNC(=O)c2cccc([N+](=O)[O-])c2)ccc1O	i
52	CCOc1ccc(CCNC(=O)C2CCN(c3nn4c(=O)cc(C)nc4s3)CC2)cc1	1.8
53	O=C1CC(C(=O)Nc2ccccc2)C2(CCCC2)O1 (stereo unspecified)	i
54	CCC1(C)Cc2c(C#N)c(N)sc(=S)c2CO1 (stereo unspecified)	i
55	CC(C)CC(c1nnnn1Cc1ccccc1)N1CCN(C(=O)c2ccco2)CC1 (stereo unspecified)	0.4
56	Cc1cc(N2C(=O)C3C4C=CC(C4)C3C2=O)no1 (stereo unspecified)	i
57	CCN(CC)S(=O)(=O)c1ccc(-c2nnc(SCc3nnc(-c4ccccc4)o3)o2)cc1	i
58	Brc1ccc(-c2nnc3sc(CNCc4ccc5c(c4)OCO5)cn23)cc1	2.7
59	CCc1cc(=O)oc2cc(C)c(CN3CCCC(C)C3)c(O)c12 (stereo unspecified)	0.4
60	COc1ccc(C)cc1NC(=O)c1ccc(NC(=O)CC2SC(N3CCCC3)=NC2=O)cc1 (stereo unspecified)	i

cpd	Molecule	H5N1 antiviral
61	NC(=O)C1CCN(Cc2nnnn2Cc2ccco2)CC1	i
62	Cc1ccc(C(=C2C3C=CC2C2C(=O)NC(=O)C32)c2ccc(C)cc2)cc1 (stereo unspecified)	0.9
63	O=C(c1cnccn1)N(c1ccccc1)C1(C(=O)NC2CCCCC2)CCCCC1	5.1
64	COc1c2occc2cc2ccc(=O)oc12	1.4
65	Cc1ccc(/C=c2\sc3n(c2=O)CN(c2cccc(Br)c2)CN=3)o1	2.9
66	O=C(NCCc1ccccc1)C1CCN(S(=O)(=O)c2cccc3nonc23)CC1	i
67	O=c1[nH]c2ccc(Br)cc2c(-c2ccccc2)c1CN1CCOCC1	0.4
68	CCOC(=O)C(=CNc1cc(C)nn1-c1ccc(Cl)cc1)C(=O)OCC	i
69	Cn1c(=O)cc(OCC(=O)NCc2ccccn2)c2ccccc21	2.2
70	COC(=O)c1ccc(NC(=S)NCCC2=CCCCC2)cc1	0.1
71	Cc1noc(C)c1COc1ccc(C(=O)OCC(=O)N2CC(=O)Nc3ccccc32)cc1	0.3
72	COc1ccc(OCC(=O)N/N=C/c2ccc(O[C@@H]3O[C@H](CO)[C@@H](O)[C@H](O)[C@H]3O)cc2)cc1	0.3

cpd	Molecule	H5N1 antiviral
73	CCOC(=O)c1[nH]c(COC(=O)C2CC(=O)N(Cc3ccccc3)C2)c(C(=O)OCC)c1C (stereo unspecified)	0.7
74	Cc1ccccc1-c1nc(CN2CCCC(C(=O)NCc3cccnc3)C2)c(C)o1 (stereo unspecified)	0.2
75	CCS(=O)(=O)c1ccc2oc(SCC(=O)c3ccco3)nc2c1	i
76	COc1ccc2nc(NC(=O)CSc3nc(C)cc(C)n3)sc2c1	1.1
77	NC(=O)c1ccc(OCC(F)(F)C(F)(F)C(F)(F)C(F)(F)C(F)(F)C(F)F)cc1	1.5
78	CC1CCCC(NC(=O)c2cn(C)c3ccc(S(=O)(=O)N4CCCC4)cc3c2=O)C1C (stereo unspecified)	i
79	CCCNC(=O)CN1C(=O)NC2(CCCc3cc(OC)ccc32)C1=O (stereo unspecified)	1.1
80	Cc1ccc2cc(CN(Cc3ccco3)C(=O)c3ccccc3)c(=O)[nH]c2c1C	0.4
81	O=C(CC1CCCCC1)NCc1cn2ccsc2n1	4.2
82	O=Cc1ccc(N2CCCCCC2)cc1	0.4
83	C=CCN(CC=C)Cc1c(C)[nH]c2ccc(C(=O)OCC)cc2c1=O	i
84	O=C(Nc1ccc(-n2nncc2-c2ccco2)cc1)c1ccc(F)cc1	i

cpd	Molecule	H5N1 antiviral
85	COC(=O)c1cc(OC)c(OC)cc1NC(=O)c1ccc(OC)c(OC)c1	0.7
86	CCOC(=O)CNS(=O)(=O)CCN1C(=O)c2ccccc2C1=O	0.5
87	Cc1cc(/C=N/n2cnnc2)c(C)n1-c1ccc(OCc2ccc(Cl)cc2Cl)cc1	i
88	NC(=O)C1CCN(c2oc(-c3ccccc3F)nc2S(=O)(=O)c2ccc(Cl)cc2)CC1	1.1
89	O=C(Cc1ccccc1)NC(Nc1ccccc1)C(Cl)(Cl)Cl (stereo unspecified)	i
90	CC(=O)c1c(C)nn(CC(O)COc2ccc3c(c2)CCC3)c1C (stereo unspecified)	0.5
91	COc1ccc(-n2nnc3c(=O)n(CC(=O)NCC4CCCO4)cnc32)cc1 (stereo unspecified)	i
92	Cc1ccccc1OCCn1nc(C(=O)O)c2ccccc2c1=O	i
93	O=c1[nH]c(C2CCCN(S(=O)(=O)c3ccccc3)C2)nc2c1nnn2Cc1ccccc1F (stereo unspecified)	5.2
94	Cc1ccc(S(=O)(=O)c2c(C)cc(C)nc2Cl)cc1	1.1
95	O=C(NC1CCCCC1)NC1CCN(S(=O)(=O)c2ccc3c(c2)OCCO3)CC1	i
96	Cc1occc1-c1nnc(SCC(=O)c2ccc(F)cc2)o1	i

cpd	Molecule	H5N1 antiviral
97	COc1ccc2[nH]c(=O)c(CN(C3CCCCC3)C(c3nnnn3Cc3ccco3)C(C)C)cc2c1 (stereo unspecified)	2.7
98	O=S(=O)(c1cccc(S(=O)(=O)N2CCN(c3ncccn3)CC2)c1)N1CCOCC1	0.6
99	CCOC(=O)CC1=C(C(=O)OCC)C(c2cccs2)C(C#N)=C(N)O1 (stereo unspecified)	i
100	Cc1c(C(=O)OCC(C)C)[nH]c2c1C(=O)CC(c1cccs1)C2 (stereo unspecified)	i
101	CCc1ccc2[nH]c(=O)c(C(c3nnnn3CCOC)N3CCN(c4ccccc4)CC3)cc2c1 (stereo unspecified)	2.2
102	Cn1c(=O)c2c(nc(CN3CCOCC3)n2CCN2CCOCC2)n(C)c1=O	1.3
103	CC(C)CCNC(=O)NC(=O)CN1C(=O)NC2(CCCCC2)C1=O	2.2
104	CCOCCCNC(=O)C(NC(=O)c1ccc(=O)[nH]c1)c1ccc(Cl)cc1 (stereo unspecified)	1.7
105	COc1ccc(NC(=O)c2c(-c3ccccc3)noc2C)c(OC)c1	0.9
106	CCOc1ncccc1C(=O)OCC(=O)N1CCN(S(=O)(=O)c2ccccc2)CC1	0.1
107	CCC(C)NS(=O)(=O)c1ccc(NC(=O)CCC2CCCCC2)cc1 (stereo unspecified)	0.2
108	O=C(CSc1nc(C2CC2)nc2ccccc12)NCc1ccc2c(c1)OCO2	i

cpd	Molecule	H5N1 antiviral
109	CCN(CC)c1nc(N)c2c(N)n(-c3ccccc3C)c(=S)c(C#N)c2c1C#N	1.1
110	Cc1cccc(C(=O)N/N=C/c2ccc(OC3CSC3)cc2)c1	i
111	Cc1ccc(Cc2c(C)nc3nc(SCC(=O)N4CCC5(CC4)OCCO5)nn3c2C)cc1	1.6
112	CCOC(=O)CCC(=O)N1CCOCCN(C(=O)CCC(=O)OCC)CCOCC1	i
113	O=C(/C=C/c1ccccc1)N(c1ccccn1)C1CCCCC1	0.4
114	Nc1ccccc1C(=O)NNc1ncc(C(F)(F)F)cc1Cl	i
115	Cc1cc(C)n(-c2nc3ccccc3nc2Nc2ccc(CC(=O)O)cc2)n1	i
116	CCn1c2ccccc2c2cc(NC(=O)CCCN3C(=O)CCC3=O)ccc21	1.2
117	COC(=O)c1ccccc1OC(=O)c1ccc(Br)o1	0.9
118	Cc1cc(CNC(=O)Cc2c(F)cccc2Cl)nn1C	i
119	CCN(CC)c1ccc(/C=N/N2CCN(Cc3cccc4ccccc34)CC2)c(O)c1	0.1
120	C/C(Cc1ccccc1)=N\NC(=O)CCCCCC(=O)N/N=C(\C)Cc1ccccc1	0.6

cpd	Molecule	H5N1 antiviral
121	O=C(COC(=O)c1ccccn1)NC12CC3CC(CC(C3)C1)C2	i
122	COc1ccc(Cl)cc1N/C(N)=N/c1nc(CSc2ccc(C)cc2)cc(=O)[nH]1	i
123	CCCNC(=O)NC(=O)CSc1ncc(C(F)(F)F)cc1Cl	i
124	Nc1c(C(=O)NCC2CCCO2)c2nc3ccccc3nc2n1-c1ccccc1 (stereo unspecified)	i
125	COC(=O)c1c(C)nc(C)c2c(=O)oc3ccccc3c12	0.9
126	CCc1nnc(NC(=O)c2cccnc2)s1	0.1

Screens deposited in PubChem by SRMLSC.
